# PD-1 reversal: reversal of PD-1 mediated T-cell inhibition; primary human CD4 T cells, PD-L1 beads, CellTiter-Glo 96 h; activation, % (no concentration beside the values); 29,000 tested, under 10 active; AID 2316;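 active means replicate mean of 50% or more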;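 further: 0% = median vehicle wells and 100% = positive control; 100 nL library stock added to about 50 µL; numbers are from one replicate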
# Hedgehog inh: blocks Sonic Hedgehog signaling | Shh-LIGHT2 Gli-luciferase reporter, 30 h | 22,000 tested, 2.1% active | inhibition, % (no concentration beside the values) | AID 2313;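 active means replicate mean of 65% or more; inconclusive means mean lower but half the replicates past it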;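 further: pathway switched on by Shh-conditioned medium diluted 1 in 25 in low serum; 100 nL library stock added to about 40 µL; 0% = median of neutral wells and 100% = positive control level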
# MITF inh: inhibitors of MITF. TRPM1 promoter luciferase, luminescence, 24 h. inhibition, % (concentration not given with the values). 37,000 tested, 0.28% active;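 active means most replicates at 85% or more, or half of them and the mean; inconclusive means half reach 85% but not the mean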;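 further: human melanocyte line stably carrying TRPM1 promoter luciferase reporter; 0% = vehicle wells and 100% = a positive control; the first replicate is given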
# YB-1 expression: YB-1 expression inhibition | U2OS, qRT-PCR YB-1 vs CDIP delta delta Cp, 16 h; stronger effect = higher value; zero = DMSO, each unit about twofold | 30,000 tested, 0.37% active | delta delta Cp (YB-1 minus CDIP) (test concentration not listed);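 active means delta delta Cp rounded down to an integer at or above 3, about 3 SD of DMSO wells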;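 further: higher means less YB-1 transcript or more CDIP transcript relative to DMSO; stock transfer was 100 nL into about 100 µL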
# * hit, by the source's call; u = inconclusive; x = not tested or not shown. A portion of the library, so the mix of outcomes need not match the whole.
# Results follow in this order: Hedgehog inh	PD-1 reversal	MITF inh	YB-1 expression
- Cc1ccccc1NC(=O)CCC(=O)OC1CCC(C(C)(C)C)CC1 (stereo not drawn)
    29.1	-0.4	-11.5	-0.3
- CN(Cc1ccccc1)C(=O)c1cccc(C(=O)N(C)Cc2ccccc2)c1
    44.9	2.5	16.0	-0.531
- C[C@@H]1CN([C@H](C)CO)C(=O)c2cccc(NC(=O)C3CCOCC3)c2O[C@@H]1CN(C)CC1CCCCC1
    -92.3	2.8	-5.4	-0.0948
- COc1ccc(C)cc1S(=O)(=O)N(C)CC(=O)Nc1ccccc1F
    x	0.6	-13.1	x
- Cc1ccc(S(=O)(=O)Nc2ccc3c(c2)CC(=O)N([C@@H](C)CO)C[C@@H](C)[C@@H](CN(C)S(=O)(=O)c2ccc(Cl)cc2)O3)cc1
    22.8	-2.4	6.8	-0.0617
- O=C(O)COc1cccc(NC(=O)c2ccc(-c3ccccc3)cc2)c1
    x	1.4	20.6	x
- C=CCn1c(N)cc(=O)nc1SCC(=O)N1c2ccccc2Sc2ccccc21
    x	1.5	8.7	x
- Cc1ccc(S(=O)(=O)Nc2ccc3c(c2)C(=O)N([C@H](C)CO)C[C@@H](C)[C@H](CN(C)Cc2ccc(Cl)c(Cl)c2)O3)cc1
    x	0.4	19.1	-0.000898
- C[C@H](CO)N1C[C@H](C)[C@H](CN(C)S(=O)(=O)c2cccs2)Oc2ccc(NC(=O)c3ccncc3)cc2CC1=O
    -37.2	-0.2	-8.0	-0.53
- CC1=CCC(C(=O)O)C(C(=O)Nc2cccnc2)C1 (stereo not drawn)
    x	2.5	-15.8	x
- COc1ccc(CN(C)C[C@H]2Oc3ccc(NS(=O)(=O)c4ccc(Cl)cc4)cc3C(=O)N([C@@H](C)CO)C[C@@H]2C)cc1
    13.9	-1.3	-0.4	0.246
- C[C@@H]1CN([C@H](C)CO)C(=O)Cc2cc(NC(=O)Nc3ccccc3)ccc2O[C@H]1CN(C)S(=O)(=O)c1cn(C)cn1
    -14.5	0.6	4.1	0.34
- C[C@@H]1CN([C@H](C)CO)C(=O)Cc2cc(NC(=O)C3CC3)ccc2O[C@@H]1CN(C)C(=O)Nc1ccc(C(F)(F)F)cc1
    -31.6	0.5	-1.4	0.271
- C[C@@H]1CN([C@@H](C)CO)C(=O)c2cc(NC(=O)c3ccncc3)ccc2O[C@H]1CN(C)S(C)(=O)=O
    -18.4	0.6	7.4	-0.0793
- COc1ccc(NC(=O)CN(C2CCCCC2)S(=O)(=O)c2ccc(C)cc2)cc1Cl
    x	-1.0	28.2	x
- C[C@H]1CN([C@@H](C)CO)C(=O)c2cccc(NS(=O)(=O)c3cn(C)cn3)c2O[C@@H]1CN(C)S(=O)(=O)c1cccs1
    -3.9	x	-4.4	-0.541
- C[C@H]1CN([C@@H](C)CO)C(=O)c2cc(N(C)C)ccc2O[C@H]1CN(C)Cc1ccccc1
    2.6	0.3	9.3	-0.182
- C[C@H](CO)N1C[C@H](C)[C@H](CN(C)Cc2ccc(C(=O)O)cc2)Oc2c(NC(=O)c3ccc(-c4nccs4)cc3)cccc2C1=O
    20.3	x	-16.1	0.113
- C[C@@H]1CN([C@@H](C)CO)C(=O)c2cc(NC(=O)Nc3ccc4c(c3)OCO4)ccc2O[C@@H]1CN(C)S(=O)(=O)c1ccc(Cl)cc1
    x	0.9	-13.6	0.255
- COc1ccccc1N(C(=O)NCc1ccccc1)C1=NCC(C)S1 (stereo not drawn)
    1.1	-1.4	15.2	-0.642

# A second format for part of the listing above.
CC1=CCC(C(=O)O)C(C(=O)Nc2cccnc2)C1 (stereo not drawn)
- Hedgehog inh: x
- PD-1 reversal: 2.5
- MITF inh: -15.8
- YB-1 expression: x
COc1ccc(CN(C)C[C@H]2Oc3ccc(NS(=O)(=O)c4ccc(Cl)cc4)cc3C(=O)N([C@@H](C)CO)C[C@@H]2C)cc1
- Hedgehog inh: 13.9
- PD-1 reversal: -1.3
- MITF inh: -0.4
- YB-1 expression: 0.246

# Later entries:
# Results follow in this order: Hedgehog inh	PD-1 reversal	MITF inh	YB-1 expression
- CC1CN(S(=O)(=O)c2cccc(C(=O)O)c2)CC(C)O1 (stereo not drawn)
    -10.6	0.1	3.1	-0.289
- COc1cc(NC(=O)CCCN2C(=O)c3ccccc3C2=O)c(OC)cc1Cl
    x	1.0	-19.2	x
- C[C@H]1CN([C@@H](C)CO)C(=O)c2cc(NS(=O)(=O)c3ccccc3)ccc2O[C@@H]1CN(C)C(=O)Nc1cccc2ccccc12
    x	x	0.0	0.0723
- CCn1c(SCC(=O)Nc2cc(C)c(Cl)cc2OC)nnc1-c1cnccn1
    x	-0.2	-9.4	x
- C[C@@H]1CN([C@H](C)CO)C(=O)Cc2cc(N(C)C)ccc2O[C@@H]1CN(C)C(=O)NC1CCCCC1
    14.5	-0.7	2.6	0.2
- COC(=O)C1=C(C)NC(C)=C([N+](=O)[O-])C1c1ccccc1C(F)(F)F (stereo not drawn)
    u	2.1	-8.4	0.397
- COc1ccc(-c2nc3ccc4ccccc4c3c3c2CCCC3)cc1
    -3.4	0.6	4.0	-0.506
- Cc1ccc(S(=O)(=O)N(C)CC(=O)Nc2cc([N+](=O)[O-])ccc2C)cc1
    x	2.1	28.1	x
- Cc1ccc(S(=O)(=O)Nc2ccc3c(c2)CC(=O)N([C@H](C)CO)C[C@@H](C)[C@H](CN(C)CC2CCCCC2)O3)cc1
    19.1	0.9	4.6	0.00205
- C[C@H](CO)N1C[C@H](C)[C@H](CN(C)Cc2ccc(-c3ccccc3)cc2)Oc2c(NS(=O)(=O)c3ccc(F)cc3)cccc2C1=O
    50.2	-5.0	45.9	0.126
- O=C(CC1NC(=O)NC1=O)Nc1ccc(F)cc1 (stereo not drawn)
    x	2.3	-7.1	x
- O=C1C(c2c(O)[nH]c3ccccc23)=Nc2ccccc21
    -46.3	-0.1	-0.5	0.0214
- C[C@H]1CN([C@@H](C)CO)C(=O)c2cc(N(C)C)ccc2O[C@H]1CN(C)Cc1ccc(C(=O)O)cc1
    -26.4	2.9	7.8	-0.0475
- COc1nc(OCCNS(=O)(=O)c2ccc(C)cc2)nc(N(C)C)n1
    x	2.0	-19.9	x
- COc1ccc(-c2nnc(SCC(N)=O)n2C)cc1OC
    x	1.1	20.5	x
- C[C@H](CO)N1C[C@H](C)[C@H](CN(C)Cc2ccc(C(=O)O)cc2)Oc2ccc(NC(=O)Nc3ccccc3)cc2CC1=O
    x	x	-17.6	-0.294
- C[C@@H]1CCCCO[C@@H](CN(C)C(=O)Nc2ccc(C(F)(F)F)cc2)[C@@H](C)CN([C@H](C)CO)C(=O)c2cc(NS(=O)(=O)c3ccc(Cl)cc3)ccc2O1
    119.2*	-9.4	43.9	-0.0888
- Nc1nnc(SCC(=O)Nc2cccc(Cl)c2Cl)s1
    x	1.0	-13.0	x
- Cn1c(SCC(=O)Nc2ccccc2Cl)nnc1-c1cccnc1
    x	1.0	-7.5	x
- O=C(CSc1nnc(-c2ccncc2)n1-c1ccccc1)Nc1ccc(C(F)(F)F)cc1
    x	-1.7	-2.5	x
- C[C@H]1CN([C@@H](C)CO)C(=O)c2cccc(NS(=O)(=O)c3cn(C)cn3)c2O[C@@H]1CN(C)CC1CC1
    9.1	2.4	-2.9	-0.115
- CCCC1=NN(C(=O)/C=C/c2cccs2)C(=O)C1Cc1c(F)cccc1Cl (stereo not drawn)
    x	-0.7	-16.3	-0.318
- Cc1noc(C)c1S(=O)(=O)Nc1ccc2c(c1)CC(=O)N([C@@H](C)CO)C[C@H](C)[C@H](CN(C)S(=O)(=O)c1cn(C)cn1)O2
    -2.6	2.2	-7.6	0.276
- Cc1ccc(S(=O)(=O)Nc2ccc3c(c2)C(=O)N([C@H](C)CO)C[C@@H](C)[C@H](CN(C)C(=O)Nc2cccc4ccccc24)O3)cc1
    -6.3	0.3	6.6	-0.0444
- N#C/C(=C\Nc1ccc(F)c(Cl)c1)S(=O)(=O)Cc1ccco1
    -23.9	0.3	9.5	0.266
- C[C@H]1CN([C@@H](C)CO)C(=O)c2cccc(NC(=O)C3CCOCC3)c2O[C@@H]1CN(C)C(=O)Nc1ccc(F)cc1
    -216.9	1.2	-8.4	-0.688
- CCOc1ccccc1N1C(=O)CN=C1Nc1nc(C)cc(C)n1
    x	-1.1	-0.3	x
- O=C(CSc1n[nH]c(=O)n1-c1cccc(C(F)(F)F)c1)N1CCC(C(F)(F)F)CC1
    -10.5	3.2	-7.0	-0.0431
- C[C@@H]1CCCCO[C@@H](CN(C)S(=O)(=O)c2cn(C)cn2)[C@@H](C)CN([C@H](C)CO)C(=O)c2cc(NS(=O)(=O)c3cccs3)ccc2O1
    x	0.3	-5.5	-0.251
- C[C@@H]1CN([C@H](C)CO)C(=O)c2cc(NC(=O)Nc3ccc(F)cc3)ccc2O[C@H]1CN(C)Cc1ccc(Oc2ccccc2)cc1
    x	-2.5	-1.2	0.131
- CCCN(C)C[C@@H]1OCCCC[C@@H](C)Oc2ccc(NS(C)(=O)=O)cc2C(=O)N([C@H](C)CO)C[C@@H]1C
    -20.9	x	-1.8	0.0193
- CCn1c(C)nc2c(=O)oc3ccccc3c21
    -47.2	0.8	-12.4	-0.423
- C[C@@H]1CN([C@@H](C)CO)C(=O)Cc2cc(NS(C)(=O)=O)ccc2O[C@@H]1CN(C)C(=O)Nc1ccccc1
    x	-0.5	-4.3	-0.819
- COc1cc(O)c2c(c1)O[C@H](c1ccc(O)c(O)c1)[C@@H](O)C2=O
    32.7	x	x	0.938
- C[C@H](CO)N1C[C@H](C)[C@H](CN(C)C(=O)Nc2ccc3c(c2)OCO3)Oc2c(NS(=O)(=O)c3cccs3)cccc2C1=O
    12.3	-1.0	3.3	-0.572
- C[C@@H]1CN([C@@H](C)CO)C(=O)Cc2cc(NS(=O)(=O)c3cccs3)ccc2O[C@@H]1CN(C)C
    22.1	-0.1	-4.6	-0.215
- Cc1noc(C)c1NC(=O)Nc1cccc2c1O[C@H](CN(C)S(=O)(=O)c1ccccc1)[C@H](C)CN([C@@H](C)CO)C2=O
    -26.4	-4.1	-5.9	0.206
- COc1ccc(S(=O)(=O)Nc2ccc3c(c2)CC(=O)N([C@@H](C)CO)C[C@H](C)[C@@H](CN(C)C(=O)Nc2ccc(C(F)(F)F)cc2)O3)cc1
    -43.2	-2.1	5.0	-0.248
- C[C@@H]1CN([C@@H](C)CO)C(=O)c2cc(NS(=O)(=O)c3ccccc3)ccc2O[C@@H]1CN(C)S(C)(=O)=O
    3.2	0.9	0.8	-0.35
- Cc1cc(C)c(NC(=O)CN(c2ccc(Cl)cc2C)S(C)(=O)=O)c(C)c1
    x	-0.7	7.5	x
- CC1(C)c2ccccc2N(CCC(N)=O)C12C=Cc1c(ccc3ccccc13)O2 (stereo not drawn)
    1.7	0.1	38.5	0.0388
- C[C@@H]1CN([C@H](C)CO)C(=O)c2cc(NC(=O)Nc3ccc(C(F)(F)F)cc3)ccc2O[C@H]1CN(C)S(C)(=O)=O
    -10.3	0.4	-5.9	-0.0753
- C[C@@H]1CN([C@H](C)CO)C(=O)Cc2cc(NC(=O)C3CCCCC3)ccc2O[C@H]1CN(C)Cc1ccc(-c2ccccc2)cc1
    31.4	-3.8	20.1	0.309
- C[C@@H]1CCCCO[C@@H](CN(C)S(=O)(=O)c2ccc(Cl)cc2)[C@@H](C)CN([C@H](C)CO)C(=O)c2cc(NC(=O)Nc3ccc(C(F)(F)F)cc3)ccc2O1
    -11.2	-2.2	-0.1	-0.381
- Cc1ccc(NC(=O)CN(C)S(=O)(=O)c2ccc(Br)cc2)cc1C
    x	0.7	-0.2	x
- C[C@@H]1CN([C@H](C)CO)C(=O)c2cccc(NS(=O)(=O)c3ccc(Cl)cc3)c2O[C@H]1CN(C)S(=O)(=O)c1ccc(F)cc1
    -27.2	0.6	1.1	0.0572
- C[C@@H]1CCCCO[C@H](CN(C)C(=O)c2ccncc2)[C@@H](C)CN([C@H](C)CO)C(=O)c2cc(NC(=O)c3ccncc3)ccc2O1
    -0.4	0.4	-6.9	-0.079
- C[C@@H]1CN([C@H](C)CO)C(=O)c2cc(NC(=O)NC3CCCCC3)ccc2O[C@H]1CN(C)S(C)(=O)=O
    -3.8	x	-6.5	-0.101
- COc1ccc(S(=O)(=O)N(C)C[C@@H]2Oc3ccc(NC(=O)CCCN(C)C)cc3C(=O)N([C@H](C)CO)C[C@@H]2C)cc1
    -34.7	0.7	1.1	0.14
- Cc1cc(C)cc(N(C(C)C(=O)NC2CCCC2)S(C)(=O)=O)c1 (stereo not drawn)
    x	1.2	2.7	x
- C[C@@H]1CN([C@H](C)CO)C(=O)Cc2cc(NC(=O)Nc3ccc(C(F)(F)F)cc3)ccc2O[C@H]1CN(C)Cc1ccc(C(F)(F)F)cc1
    -8.3	-2.0	6.7	-0.238
- C[C@H]1CN([C@@H](C)CO)C(=O)c2cccc(NC(=O)Nc3ccc(C(F)(F)F)cc3)c2O[C@@H]1CN(C)C(=O)Nc1ccccc1
    -0.1	x	-3.7	0.0255
- CC(NCC(O)Cn1c2ccccc2c2ccccc21)C(=O)O (stereo not drawn)
    x	2.7	-11.4	x
- Cc1ccc(S(=O)(=O)Nc2cccc3c2O[C@@H](CN(C)C(=O)Nc2ccccc2)[C@@H](C)CN([C@H](C)CO)C3=O)cc1
    -17.0	-3.0	0.0	0.102
